NS1 function inh – influenza NS1 inhibition | S. cerevisiae slowed by influenza A NS1, growth recovery by OD600 | Potency, µM (highest dose often 46.1 µM), for inactives: top-dose activity, positive = more growth | actives 0.4% (n = 270,000) | AID 2326; active means well fitted rising curve with a large enough effect; inconclusive means small, poorly fitted or top-dose-only effect; inactive means no such curve, though single readings can be large or run the other way; also: nearly all actives have a fitted effect of over 50% in size
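Growth recovery, yeast-based: influenza A NS1 expressed in S. cerevisiae causes slow growth, and suppressors are detected by OD600. The parent strain without NS1 is used as positive control.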
2A StopGo – FMDV 2A StopGo reporter, luciferase signal | AID 1159524 | Potency, µM (titrated, usually from 57.9 µM), without a hit: at the highest dose signal change, negative = less light | actives 1.2% (n = 410,000) | human cells with a luciferase reporter of 2A StopGo recoding; control for the full effect not named in the record; active = well fitted falling curve with a large enough effect; inconclusive = small, poorly fitted or top-dose-only effect; inactive = no such curve, though single readings can be large or run the other way; tested in HEK293T cells; also: % is scaled to controls: 0 for no effect and ±100 for the full control effect; nearly all actives have a fitted effect of over 45% in size; luciferase light after 4 h
RE007 growth inh – less growth of the S. pombe RE007 Vpr strain; S. pombe RE007 Vpr strain, BacTiter-Glo ATP luminescence, 24 h; control for the full effect not named in the record; Potency, µM (top dose mostly 92.2 µM), inactives show at the highest dose activity change, negative = less growth; actives 0.21% (n = 360,000); AID 651644; active = well fitted falling curve with a large enough effect; inconclusive = small, poorly fitted or top-dose-only effect; inactive = no such curve, though single readings can be large or run the other way;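 also: % is scaled to controls: 0 for no effect and ±100 for the full control effect; nearly all actives have a fitted effect of over 50% in size; the assay follows cell death caused by Vpr and the record does not say whether a fall means rescue or toxicity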
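Fission yeast strain RE007, carrying one chromosomally integrated HIV-1 vpr copy, was seeded at OD 0.01 in PMG+AL medium with 23 nL pinned compound. After 24 h at 30 °C and 99% humidity, viability was read by BacTiter-Glo luminescence.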
Lassa entry inh – Lassa virus entry inhibition; Lassa virus pseudotype entry inhibition, cell reporter; control for the full effect not named in the record; Potency, µM (highest dose often 37.9 µM), for inactives: at the highest dose activity change, negative = inhibition, hits mostly inhibitors; actives 1.2% (n = 300,000); active means well fitted inhibition curve with a large enough effect; inconclusive means small, poorly fitted or top-dose-only effect, or effect the other way; inactive means flat fitted curve, though single readings scatter; tested in HEK293 cells; also: % is scaled to controls: 0 for no effect and ±100 for the full control effect; nearly all actives have a fitted effect of over 50% in size; luciferase read-out
SARS PLpro yeast – blocks SARS-CoV papain-like protease in a yeast assay | S. cerevisiae expressing SARS-CoV PLpro, growth rescue; control for the full effect not named in the record | Potency, µM (series often up to 32.9 µM), inactives show at the top dose activity, positive = growth rescue | actives 0.19% (n = 330,000) | AID 485353; active means well fitted rising curve with a large enough effect; inconclusive means small, poorly fitted or top-dose-only effect; inactive means no such curve, though single readings can be large or run the other way; also: 0% is about no effect; nearly all actives have a fitted effect of over 55% in size; growth read by luminescence after 48 h
Cruzain noTriton – blocks cruzain activity in detergent-free assay. P25779. purified cruzain, Z-FR-AMC fluorescence, no detergent. Potency, µM, for inactives: max response, negative = inhibition, hits mostly inhibitors. actives 2.3% (n = 200,000). AID 1476;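 also: plate controls were enzyme without inhibitor for no effect and buffer without enzyme for full effect; nearly all actives have a fitted effect of over 40% in size; top concentration of the series not given in the record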
Target sequence (P25779 123-467 limits assumed): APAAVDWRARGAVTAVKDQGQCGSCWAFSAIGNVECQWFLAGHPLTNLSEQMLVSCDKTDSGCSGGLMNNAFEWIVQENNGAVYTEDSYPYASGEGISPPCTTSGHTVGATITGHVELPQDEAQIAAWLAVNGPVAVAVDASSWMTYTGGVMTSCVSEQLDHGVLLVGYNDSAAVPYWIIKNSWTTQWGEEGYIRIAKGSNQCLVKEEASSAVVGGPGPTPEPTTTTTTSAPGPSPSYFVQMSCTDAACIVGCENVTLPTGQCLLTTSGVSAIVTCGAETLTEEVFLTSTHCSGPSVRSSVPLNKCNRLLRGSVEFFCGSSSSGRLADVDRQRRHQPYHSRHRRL
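Detergent-free condition (0.00005% Triton X-100) in acetate buffer pH 5.5 with DTT. 1.5 nM enzyme and compound were pre-mixed 15 min, then 2 uM Z-FR-AMC substrate added; reaction progress from fluorescence change between first and third reads (60 s).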
Cruzain inh Det – blocks cruzain activity in presence of Triton detergent. P25779. Potency, µM, inactives show max response, negative = inhibition, usual class: inhibitors. actives 0.43% (n = 200,000). purified cruzain, Z-FR-AMC fluorescence, 0.01% Triton;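 also: plate controls were neutral wells for no effect and buffer without enzyme for full effect; nearly all actives have a fitted effect of over 40% in size; top concentration of the series not given in the record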
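Z-FR-AMC hydrolysis (2 uM substrate) by cruzain (1.5 nM) monitored kinetically at ex 360/em 450 nm after 15 min room-temperature compound exposure; 0.01% Triton X-100, pH 5.5, 5 mM DTT.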
MARV entry inh – blocks Marburg virus binding to or entry into cells. Marburg virus pseudotyped entry inhibition, cell reporter; control for the full effect not named in the record; about a third of the inactives were read at about 46 µM. Potency, µM (top dose mostly 37.8 µM), for inactives: top-dose activity change, negative = inhibition, most hits filed as inhibitors. actives 1.8% (n = 300,000). AID 540276; active = well fitted inhibition curve with a large enough effect; inconclusive = small, poorly fitted or top-dose-only effect, or effect the other way; inactive = flat fitted curve, though single readings scatter; tested in HEK293 cells; about a fifth of its hits are not listed in these tables; also: % is scaled to controls: 0 for no effect and ±100 for the full control effect; luciferase read-out
* marks the source's active call; other numbers are inactive results; ? = inconclusive; . = no result given; & = joins results of further samples; [ ] = remark or other dose. Unless noted, calls follow the shape of the dose curve; as a rule, active = well fitted curve in the direction sought with a large enough effect; inconclusive = small, poorly fitted or top-dose-only effect, or another doubt; inactive = no such curve, though single readings can be large; an effect the other way counts as inactive or inconclusive. Potency is read from the fitted curve at half-maximal effect.

SMILES	NS1 function inh	2A StopGo	RE007 growth inh	Lassa entry inh	SARS PLpro yeast	Cruzain noTriton	Cruzain inh Det	MARV entry inh
CC(C)C(=O)NCCCc1ccccc1	-13%	-16%	12%	-6%	1%	-2%	3.5%	?
Cc1ccc(N=C2NC(=O)C(CC(=O)NCc3ccccc3)S2)cc1C (stereo unspecified)	9%	-8%	-18%	1%	-16%	-3%	0.2%	17%
Cc1cc(NC(=O)CS(=O)CC(=O)Nc2c(C)cccc2C)ccc1-n1cnnn1 (stereo unspecified)	14%	4%	0%	4%[46.1 µM]	8%	.	.	?
Cc1ccc(-c2nn3c(C)nnc3s2)cc1NC(=O)C(C)C	13%	4%	-5%	.	10%	-3%	6.7%	.
COc1ccc(-c2nnn(CC(=O)N(CCCO)C(C(=O)NC3CCCC3)c3ccc(F)cc3)n2)cc1 (stereo unspecified)	3%	13%	1%	0%	-2%	.	.	-16%[46.1 µM]
NC(=O)CCC(NS(=O)(=O)c1ccc(Cl)cc1)C(=O)NCc1ccc(Cl)cc1 (stereo unspecified)	21%	-15%	-8%	-1%	7%	0%	3.7%	2%
NC(=S)NNc1cccc(Cl)c1	-54%	-23%	?	4%	-49%	2%	-7.9%	15%[46.1 µM]
COc1ccc(N(CC(=O)Nc2cc(C(=O)O)ccc2C)S(=O)(=O)c2c(C)noc2C)cc1	13%	-20%	-7%	1%	4%	4%	1.3%	0%&11%
CCOC(=O)c1c(NC(=O)CSc2nnc(-c3ccco3)o2)sc(C)c1C	-20%	-24%	-5%	-3%	-9%	-8%	-5.6%	-8%
CC(C)N(Cc1cc2ccccc2[nH]c1=O)C(=O)c1cccnc1	3%	-9%	-4%	24%	-6%	-2%	-7.1%	4%
COc1ccc(NC(=O)Cn2nc(C)c3nn(-c4ccc(Cl)cc4)c(C)c3c2=O)cc1	.	-27%	.	2%[46.1 µM]	.	15%	2.2%	.
NC1=NC(=O)C(Cc2ccc(OC(F)(F)F)cc2)S1 (stereo unspecified)	2%	-11%	-7%	.	0%	.	.	.
COc1cccc(CNC(=O)Cn2cccc2)c1	7%	5%	15%	2%	-4%	-1%	2.9%	26%
Cc1cc(C)nc(N2CCC(C(=O)O)CC2)n1	4%	19%	12%	0%	-5%	7%	-0.9%	7%[46.1 µM]
CCOC(=O)N1CCC(NC(=S)Nc2ccc3nc(N4CCN(C)CC4)cc(C)c3c2)CC1	.	9%	-2%	22%	2%	.	.	?
CCC/C(=C1/C(=O)CC(C)(C)C(C(=O)OC)C1=O)N1CCCC1 (stereo unspecified)	-13%	-9%	-19%	-15%	13%	1%	2.1%	8%
CCOc1ccc(C(=O)Nc2ccc3[nH]ncc3c2)cc1	27%	3%	2%	.	3%	.	.	.
Cc1cc(C)c(S(=O)(=O)NCc2ccncc2)c(C)c1	-68%	-2%	-17%	?	-3%	2%	1.0%	?
O=C(Nc1c(C(=O)NCc2ccco2)cnn1-c1ccccc1)c1ccc(F)cc1	-4%	-1%	-7%	-14%	6%	14%	3.7%	-11%
NS(=O)(=O)c1ccc(NC(=O)Nc2ccc3c(c2)OCO3)cc1	21%	62%[activator]	1%	10%	4%	.	.	21%
CCC1(c2ccccc2)NC(=O)N(CC(=O)N2CCN(S(=O)(=O)c3ccccc3)CC2)C1=O (stereo unspecified)	-2%	-7%	-8%	-3%	22%	9%	-2.7%	?
COc1ccc(Br)cc1Cn1nnc(C(=O)Nc2cccc(SC)c2)c1N	.	-39%	.	?	.	?	-0.7%	0%[46.1 µM]
OC(COC(c1ccccc1)c1ccccc1)CN1CCCCC1 (stereo unspecified)	-2%[9.22 µM]	3%	-6%	-22%	16%	2%	-2.4%	-14%
COc1ccc(CC(=O)NCC2CCCN(Cc3ccc(F)c(OC)c3)C2)cc1 (stereo unspecified)	-6%	-14%	-1%	.	3%	.	.	.
Clc1cccc(Cl)c1C[n+]1ccc2ccccc2c1	-1%	-23%	4%	.	-1%	.	.	.
Cc1nc(CSc2ccc(Cl)cc2)cs1	-2%	42%[activator]	-1%	?	0%	.	.	27%
O=C1CN(C(=O)CSc2ccc(-c3ccc(F)cc3)nn2)c2ccccc2N1	4%	-10%	4%	12%	2%	.	.	5%[46.1 µM]
COC(=O)Cn1cnc2c(nnn2-c2cccc(OC)c2)c1=O	-2%	-16%	-2%	.	0%	.	.	.
O=C(CNC(=O)C1CCCCC1)Nc1ccccc1	-5%	-4%	-8%	?	0%	-11%	-1.6%	-1%
O=C(Cc1ccccc1)N1CCN(Cc2ccccc2Cl)CC1	-1%	-27%	-1%	.	0%	.	.	.
CCN1C(=O)/C(=C/N(C)C)c2ccccc21	-25%	12%	-6%	12%	-23%	-5%	-3.9%	23%
Cc1ccc(N2C(=O)C3N=NN(CC(=O)N4N=C(c5cccc6ccccc56)CC4c4ccccc4)C3C2=O)cc1 (stereo unspecified)	?	8%	-14%	?	-17%	7.9µM*	-10.0%	?
Cc1cccc(OCC(=O)NC2CC(C)(C)NC(C)(C)C2)c1	3%	-9%	5%	-5%[46.1 µM]	-4%	.	.	-3%[46.1 µM]
O=C(COC(=O)c1c(F)cccc1F)Nc1ccc2[nH]c(=O)[nH]c2c1	10%	-7%	-9%	1%[46.1 µM]	-1%	.	.	-19%[46.1 µM]
CC(=O)N/C(=C\c1ccccc1)C(=O)OCC(=O)c1ccccc1	.	-8%	4%	21%	2%	.	.	?
COc1ccc(NC(=O)CN(c2ccc(Cl)cc2)S(C)(=O)=O)cc1OC	-1%	2%	-9%	.	4%	.	.	.
COc1ccc(C2C(C#N)=C(N)Nc3nc4ccccc4n32)cc1 (stereo unspecified)	3%	7%	14%	-7%	-3%	?	1.1%	-8%
CC(=O)N(Cc1ccccc1)C(CC(=O)NCc1ccccc1)C(=O)O (stereo unspecified)	.	-9%	1%	7%[46.1 µM]	.	.	.	18%[46.1 µM]
Cc1ccc(NC(=O)C2CCC2)cc1S(=O)(=O)N1CCCCCC1	.	-14%	-9%	?	1%	.	.	-21%[46.1 µM]
Cn1c(/N=C/c2c(O)ccc3ccccc23)nc2ccccc21	11µM*	1%	-10%	-5%	?	-19%	-24%	7%
CCOC(=O)Cn1c(=O)sc2ccccc21	-8%	36%[activator]	-5%	-1%	7%	-3%	0.8%	?
Cc1ccc(NC(=O)CC2S/C(=N/N=C/C=C/c3ccccc3)NC2=O)cc1Cl (stereo unspecified)	26%	4%	4%	8%	12%	5µM*	-2.4%	-5%
Cn1c(O)c(C=NCCN2CCOCC2)c(=O)n(C)c1=S	-5%	-22%	19%	3%	1%	.	.	-20%
Cc1nn(-c2ccccc2)c(Cl)c1C(=O)NCC(=O)O	3%	-2%	1%	3%	6%	10%	-2.2%	0%
CCOC(=O)c1c(C)[nH]c(CCC(=O)NCc2cccc(C)c2)c1C	.	-14%	.	-13%[46.1 µM]	.	-4%	1.8%	.
COc1ccc(OC)c(CNC(=O)CCCn2nc(C)c3c(C)n(-c4ccc(C)cc4)nc3c2=O)c1	.	-19%	.	-18%[46.1 µM]	.	6%	-2.9%	.
O=C(CSc1nnc(SCc2ccccc2)s1)N/N=C/c1c(Cl)cccc1Cl	4%	1%	7%	-5%	-12%	6%	-0.6%	?
CCOC(=O)C1CCCN(C(=O)c2cn(-c3ccccc3)nc2-c2cccnc2)C1 (stereo unspecified)	.	1%	6%	1%	-4%	.	.	8%
CC(C)CC(C(=O)NC(C)(C)C)N(Cc1ccccc1Cl)C(=O)c1snc(C(N)=O)c1N (stereo unspecified)	?	-23%	-3%	.	-20%	.	.	.
N#Cc1c(N)n(-c2ccc(C(=O)O)cc2)c2nc3ccccc3nc12	2%	-8%	1%	.	-1%	.	.	.
Cn1c(SCC(=O)Nc2cccc3ccccc23)nc(O)cc1=O	3.5µM*	-21%	12%	3%	4%	-23%	3.1%	26%
Cc1ccc(-c2csc(N=C(N)N)n2)cc1	-5%	26%	2%	7%	-1%	.	.	3%[46.1 µM]
O=C1CC(c2ccc(S(=O)(=O)NCCOc3ccccc3)cc2)CN1 (stereo unspecified)	-9%	-8%	-12%	-15%	3%	-2%	1.0%	5%
CC(C)(C)c1[nH]nc2c1C(c1ccncc1)C(C#N)=C(N)O2 (stereo unspecified)	-6%	-27%	17%	0%	6%	5%	5.7%	-3%
Nc1c(NCc2ccccc2F)c(=O)[nH]c(=O)n1Cc1ccccc1	6%	-3%	1%	9%	?	-8%	0.6%	0%&0%
OCC1(CCOc2ccccc2)CCN(Cc2cn[nH]c2-c2ccccc2)CC1	3%	-19%	-3%	.	-1%	.	.	.
O=C(c1ccc(COCC(F)(F)F)cc1)N1CCN(c2ccccn2)CC1	-2%	10%	-19%	.	-1%	.	.	.
O=C(O)/C(=C/c1c(C(=O)O)[nH]c2cc(Cl)cc(Cl)c12)c1ccccc1	-39%	.	.	7%	.	-6%	-5.8%	18%&18%&18%&0%&18%
O=C(O)/C(=C\c1ccccc1OC(F)F)c1ccc(-c2ccccc2)cc1	6%	58%[activator]	-5%	14%	-4%	.	.	22%[46.1 µM]
Cc1ccccc1Cn1nnc2c1C(=O)c1ccccc1C2=O	.	-2%	7%	-20%	.	.	.	?

Going on with the list.
SMILES	NS1 function inh	2A StopGo	RE007 growth inh	Lassa entry inh	SARS PLpro yeast	Cruzain noTriton	Cruzain inh Det	MARV entry inh
CC(C)CCN1CCN(Cc2ccc(Oc3ncccn3)cc2)CC1CCO (stereo unspecified)	-1%	-2%	-2%	0%	15%	.	.	-2%[46.1 µM]
NC(=O)c1ccsc1NC(=O)COC(=O)c1ccc(Cl)nc1	.	-20%	-9%	19%	3%	.	.	9%
O=C(c1ccc(C(=O)N2CCOCC2)s1)N1CCOCC1	7%	4%	6%	1%	-4%	2%	-0.7%	19%[46.1 µM]
CC(Oc1ccccc1)C(=O)Nc1nnc(S(=O)(=O)N2CCCCCC2)s1 (stereo unspecified)	-69%	-9%&-21%	1%	-4%[46.1 µM]	-3%	-2%	-4.0%	.
